Screening results as filed in PubChem BioAssay.
VACV Venus inh = qHTS for Stage-Specific Inhibitors of Vaccinia Orthopoxvirus: Venus Reporter Primary qHTS; Vaccinia virus Venus reporter expression, fluorescence; Potency, µM (top dose mostly 36.5 µM), inactives show at the highest dose activity change, negative = inhibition, usual class: inhibitors; 330,000 tested, 0.46% active; AID 720580, 2013; active means well fitted inhibition curve with a large enough effect; inconclusive means small, poorly fitted or top-dose-only effect; inactive means no such curve, though single readings can be large or run the other way; tested in A549 cells; note: nearly all actives have a fitted effect of over 30% in size; inactives centre near -10
VACV mCherry inh = qHTS for Stage-Specific Inhibitors of Vaccinia Orthopoxvirus: mCherry Reporter Primary qHTS; Vaccinia virus mCherry reporter infection, fluorescence; about a quarter of the inactives have no number; Potency, µM (doses to about 36.5 µM), for the others: at the highest dose activity change, negative = inhibition, most hits filed as inhibitors; 310,000 tested, 0.63% active; active = well fitted inhibition curve with a large enough effect; inconclusive = small, poorly fitted or top-dose-only effect; inactive = no such curve, though single readings can be large or run the other way; tested in A549 cells; note: nearly all actives have a fitted effect of over 35% in size; inactives centre near -10
An asterisk follows results filed as active; & = joins results of further samples; [ ] = remark or other dose. % is set by controls: 0 for no effect and ±100 for the full control effect; potency is the fitted concentration of half-maximal effect.

N#CC(c1ccc(Cl)cc1)c1ccc(Cl)nn1 (configuration not stated) was read as VACV Venus inh -15.1% and VACV mCherry inh inactive.
`CCOC(=O)C1=C(C)N(C)C(C)=C(C(=O)OCC)C1c1cccnc1` gave VACV Venus inh -17.5% and VACV mCherry inh inactive.
For CC1=C(C(=O)N(C)C)CC(CC(=O)NCCCN(C)C)C(=O)N1Cc1ccccc1 (configuration not stated) the results were VACV Venus inh -3.4% and VACV mCherry inh -19.3%.
Screening CCOc1ccc2nc(SCCNS(=O)(=O)c3ccccc3)sc2c1 returned VACV Venus inh inconclusive and VACV mCherry inh -26.2%.
For CCCC(=O)Nc1ccc(NC(=O)C2CC2)cn1 the results were VACV Venus inh -4.2% and VACV mCherry inh -1.0%.
Screening O=C(COc1ccccc1F)Nc1ccc(OCc2cc(=O)n3ccccc3n2)cc1 returned VACV Venus inh -5.3% and VACV mCherry inh inactive.
Cc1ccccc1S(=O)(=O)c1cc2ccccc2nc1N was read as VACV Venus inh -8.7% and VACV mCherry inh -15.6%.
Screening O=C(CCNS(=O)(=O)c1ccc(Br)cc1)NC1CCN(Cc2ccccc2)CC1 returned VACV Venus inh -26.2% and VACV mCherry inh -9.7%.
`O=C(Nc1nnc(C2CC2)s1)C1Cc2ccccc2CN1S(=O)(=O)c1cccs1` (configuration not stated) gave VACV Venus inh -16.9%.
For Cc1nn(-c2ccc(F)cc2)c(Cl)c1/C=C/C(=O)OCC(=O)Nc1c(F)c(F)c(F)c(F)c1F the results were VACV Venus inh -1.3% and VACV mCherry inh 0.0%.

Taken from the entries so far for reference:
For CC1=C(C(=O)N(C)C)CC(CC(=O)NCCCN(C)C)C(=O)N1Cc1ccccc1 (configuration not stated) the results were VACV Venus inh -3.4% and VACV mCherry inh -19.3%.
Screening CCOc1ccc2nc(SCCNS(=O)(=O)c3ccccc3)sc2c1 returned VACV Venus inh inconclusive and VACV mCherry inh -26.2%.
For CCCC(=O)Nc1ccc(NC(=O)C2CC2)cn1 the results were VACV Venus inh -4.2% and VACV mCherry inh -1.0%.
Screening O=C(COc1ccccc1F)Nc1ccc(OCc2cc(=O)n3ccccc3n2)cc1 returned VACV Venus inh -5.3% and VACV mCherry inh inactive.
Cc1ccccc1S(=O)(=O)c1cc2ccccc2nc1N was read as VACV Venus inh -8.7% and VACV mCherry inh -15.6%.
Screening O=C(CCNS(=O)(=O)c1ccc(Br)cc1)NC1CCN(Cc2ccccc2)CC1 returned VACV Venus inh -26.2% and VACV mCherry inh -9.7%.
`O=C(Nc1nnc(C2CC2)s1)C1Cc2ccccc2CN1S(=O)(=O)c1cccs1` (configuration not stated) gave VACV Venus inh -16.9%.

(further entries)
COCc1nnc(SCC(=O)Nc2cccc(Cl)c2C)n1-c1ccccc1 was read as VACV Venus inh -24.5%.
`CCC(NS(=O)(=O)c1ccc2c(c1)NC(=O)C(C)C(=O)N2)c1cccs1` (configuration not stated) gave VACV Venus inh -8.1% and VACV mCherry inh -26.6%.
Screening O=C(O)c1cc2cc(OCc3ccccc3)ccc2[nH]1 returned VACV Venus inh 2.6% and VACV mCherry inh -14.7%.
For CCOC(=O)c1cccc(NC(=O)c2ccc(N(C)C)cc2)c1 the results were VACV Venus inh -21.8% and VACV mCherry inh inactive.
Cc1cc(C(=O)N2CCN(c3ncccn3)CC2)cs1 was read as VACV Venus inh -7.0% and VACV mCherry inh -1.8%.
For CCC(NC(=O)c1ccc(C#CC2(O)CCCCC2)cc1)C(=O)O (configuration not stated) the results were VACV Venus inh -18.3% and VACV mCherry inh -4.8%.
For Cc1sc(NC(=O)c2ccccc2)c(C(c2ccc(Cl)cc2)N2CCN(CCO)CC2)c1C (configuration not stated) the results were VACV Venus inh inconclusive and VACV mCherry inh inconclusive.
CCOC(=O)c1sc(NC(=O)c2ccc(OC)cc2)nc1C was read as VACV Venus inh -3.1% and VACV mCherry inh inactive.
Screening CC(=O)Nc1ccc(S(=O)(=O)N2CCN(C(=O)c3ncoc3-c3ccc(F)cc3)CC2)cc1 returned VACV Venus inh -6.2% and VACV mCherry inh -12.4%.
For Cc1cc(/C=C2\C(=O)NC(=O)N(c3ccc(Br)cc3)C2=O)c(C)n1-c1cc(C(=O)O)cc(C(=O)O)c1 the results were VACV Venus inh -3.1% and VACV mCherry inh inactive.
Screening C=CCSc1nnc(-c2cc3c(-c4ccccc4)nn(C)c3s2)n1C returned VACV Venus inh -19.8%.
Screening O=C(NCCc1ccccc1)C(=O)NCC1OCCN1S(=O)(=O)c1ccc2c(c1)OCCO2 (configuration not stated) returned VACV Venus inh -25.1% and VACV mCherry inh inconclusive.
CCn1cc([N+](=O)[O-])c(C(=O)Nc2ccc3c(c2)OCCO3)n1 was read as VACV Venus inh 0.0% and VACV mCherry inh -11.2%.
For COc1ccc(S(=O)(=O)NCC2(N3CCOCC3)CCCCC2)cc1OC the results were VACV Venus inh -13.8% and VACV mCherry inh -6.0%.
CCOc1ccccc1NC(=O)CSC1=Nc2ccccc2C2=NC(CC(=O)NC3CCCCC3)C(=O)N12 (configuration not stated) was read as VACV Venus inh -2.7% and VACV mCherry inh -3.9%.
Screening Cc1onc(-c2c(Cl)cccc2Cl)c1C(=O)NCCCN1CCOCC1 returned VACV Venus inh -9.9% and VACV mCherry inh -9.2%.
`CC1CCN(c2nc3c(c(=O)n(C)c(=O)n3C)n2Cc2ccccc2)CC1` gave VACV Venus inh -19.6% and VACV mCherry inh 20µM*.
C=CCn1nc(-c2ccccc2)c2c(C)onc2c1=O was read as VACV Venus inh 0.3% and VACV mCherry inh -19.7%.
For COC(=O)C1=C(C)N(Cc2ccccc2)C(=S)N[C@H]1c1cccc(C(F)(F)F)c1 the results were VACV Venus inh inconclusive and VACV mCherry inh inconclusive.
For COc1ccc(Cl)cc1C(=O)NCCS(=O)(=O)N1CCN(c2ccccc2OC)CC1 the results were VACV Venus inh -26.7% and VACV mCherry inh inconclusive.
Screening O=C(CCN1C(=O)C2CCCCC2C1=O)N1CCN(S(=O)(=O)c2cccc(F)c2)CC1 (configuration not stated) returned VACV Venus inh -11.7% and VACV mCherry inh inactive.
Nc1nc2c(nc(SCc3ccccc3Br)n2[C@@H]2O[C@H](CO)[C@@H](O)[C@H]2O)c(=O)[nH]1 was read as VACV Venus inh -7.0% and VACV mCherry inh inactive.
Screening O=C1CC=C2C3CC4N(CCC45c4cc(O)c(O)cc4N1C25)CC3=CCBr (configuration not stated) returned VACV Venus inh -9.0% and VACV mCherry inh inactive.
`CCOC(=O)C1CCN(S(=O)(=O)Cc2ccc(Cl)cc2)CC1` gave VACV Venus inh -3.2% and VACV mCherry inh -1.9%.
COc1ccccc1N1CCN(C(=O)c2cc3cc(C)ccc3[nH]2)CC1 was read as VACV Venus inh -24.6% and VACV mCherry inh -2.4%.
`CCC1C(=O)N=C(SCC(=O)Nc2nc3ccccc3s2)NC1=O` (configuration not stated) gave VACV Venus inh -9.7% and VACV mCherry inh inactive.
For CCN(CC)CCOC(=O)c1ccc(NC(=O)c2nn(C)c3c2COc2ccccc2-3)cc1 the results were VACV Venus inh inconclusive and VACV mCherry inh inconclusive.
For Cc1ccc(S(=O)(=O)N2CCN(c3ncnc4ccccc34)CC2)cc1 the results were VACV Venus inh -26.6% and VACV mCherry inh inactive.
Cc1ccc(NC(=O)Cn2c(O)c(N=NS(=O)(=O)c3ccc(C)cc3)c3ccccc32)cc1 was read as VACV Venus inh -1.2% and VACV mCherry inh -12.4%.
For CC(NC(=O)c1ccccc1OC(F)F)c1ccc(-n2ccnc2)cc1 (configuration not stated) the results were VACV Venus inh -9.8% and VACV mCherry inh -13.6%.
CCC(CO)Oc1cc(NC(=O)c2cccc(C)c2)c2ncn(C(C)C)c2c1 (configuration not stated) was read as VACV Venus inh -26.5% and VACV mCherry inh inactive.
For CCNC(=O)c1sc(=S)n(CC)c1N the results were VACV Venus inh -19.0%.
Cc1ccc(CN2CCN(Cc3c[nH]c4ccccc34)CC2CCO)o1 (configuration not stated) was read as VACV Venus inh -4.5% and VACV mCherry inh 5.4%.
For N#CCCCSc1nnnn1-c1cccc(Cl)c1 the results were VACV Venus inh -16.2% and VACV mCherry inh -21.2%.
Screening C=C1CCN([C@H](C(=O)O)C(C)C)S(=O)(=O)c2ccccc21 returned VACV Venus inh -8.4% and VACV mCherry inh -22.6%.
`O=C(O)Cc1csc(Nc2cccc(Cl)c2)n1` gave VACV Venus inh -10.2% and VACV mCherry inh -10.1%.
For CCOC(=O)c1c(NC(=O)/C(C#N)=C/c2ccccc2)sc2c1CCC2 the results were VACV Venus inh 2.8% and VACV mCherry inh -7.3%.
`CC1CN(C(=O)c2cccc(S(=O)(=O)N3CCOCC3)c2)CC(C)O1` (configuration not stated) gave VACV Venus inh -9.4% and VACV mCherry inh -4.9%.
O=C(CN1CCCc2ccccc21)N/N=C/c1ccc(F)cc1F was read as VACV Venus inh -8.3% and VACV mCherry inh inconclusive.
For O=C(C1CC1)N1CCc2sccc2C1c1ccc(Cl)cc1 (configuration not stated) the results were VACV Venus inh -12.0% and VACV mCherry inh inactive.
Screening CCOC(=O)N1CCC(=NNC(N)=O)C1 returned VACV Venus inh -14.8% and VACV mCherry inh -10.5%.
`CC(=O)c1ccc(S(=O)(=O)Nc2cccc(-c3ccc4nncn4n3)c2)cc1` gave VACV Venus inh 2.5% and VACV mCherry inh inactive.
For CC1CCc2c(sc3ncnc(NCCCOC(C)C)c23)C1 (configuration not stated) the results were VACV Venus inh -27.9% and VACV mCherry inh -7.4%.
`Cc1ccc(C(=O)Nc2ccc(N3CCN(C)CC3)nc2)cc1` gave VACV Venus inh 9.3% and VACV mCherry inh -14.1%.
`CCS(=O)(=O)N1CC(=O)N(c2cccc(C)c2C)C(C)(C(=O)NC2CCCCCC2)C1` (configuration not stated) gave VACV Venus inh -3.7% and VACV mCherry inh -5.9%.
For CC(=NCCN1CCOCC1)C1=C(O)c2ccccc2C1=O the results were VACV Venus inh -11.1%.
`C#CCNC(=O)C[C@@H]1C[C@@]2(C(=O)OCC)CCCC=C2N(Cc2cccc3ccccc23)C1=O` gave VACV Venus inh -8.8% and VACV mCherry inh -9.1%.
Screening CC(C)N(Cc1nccn1C)C(=O)CCc1nnc(CCCc2ccccc2)o1 returned VACV Venus inh -11.2% and VACV mCherry inh inactive.
`O=S1(=O)CCN(c2ccccc2CC(c2c[nH]c3ccccc23)c2c[nH]c3ccccc23)CC1` gave VACV Venus inh inconclusive and VACV mCherry inh inconclusive.
Screening CC(=NNC(=O)c1ccc(NS(=O)(=O)c2ccc(Br)cc2)cc1)c1cccnc1 returned VACV Venus inh -4.7% and VACV mCherry inh inactive.

The closing two entries of the part before open the next one:
`O=S1(=O)CCN(c2ccccc2CC(c2c[nH]c3ccccc23)c2c[nH]c3ccccc23)CC1` gave VACV Venus inh inconclusive and VACV mCherry inh inconclusive.
Screening CC(=NNC(=O)c1ccc(NS(=O)(=O)c2ccc(Br)cc2)cc1)c1cccnc1 returned VACV Venus inh -4.7% and VACV mCherry inh inactive.
`Cc1cccc(N2CCN(C(=O)C3CCN(S(=O)(=O)c4c(C)noc4C)CC3)CC2C)c1` (configuration not stated) gave VACV Venus inh -14.7%&-8.4% and VACV mCherry inh -22.8%&-2.9%.
For Nc1c(N=Nc2ccccc2F)c(=O)[nH]n1-c1ccccc1 the results were VACV Venus inh -9.9% and VACV mCherry inh -18.7%[1.46 µM].
`Cc1ccc(-n2c(=O)c3sc4ccccc4c3n(CC(=O)NC3CCCC3)c2=O)cc1C` gave VACV Venus inh -27.0% and VACV mCherry inh -24.0%.
`Cc1nnc(SCC(=O)Nc2cccc(Cl)c2)n1CC1CCCO1` (configuration not stated) gave VACV Venus inh -9.4% and VACV mCherry inh -14.1%.
For CCN(CC)C(=O)Cn1ccc(NC(C)=O)nc1=O the results were VACV Venus inh -3.1% and VACV mCherry inh inactive.
For CCOC(=O)N(NC(=O)C(O)(CC(C)C)CC(C)C)c1ccccc1 the results were VACV Venus inh -12.7% and VACV mCherry inh -20.1%.
CCOC(=O)N1CCC(NC(=O)CCC(=O)N2CCOc3ccc(Cl)cc32)CC1 was read as VACV Venus inh -5.3% and VACV mCherry inh -7.6%.
`O=C(Nc1cccc(O)c1)c1cc(-c2ccccc2Cl)on1` gave VACV Venus inh -6.5% and VACV mCherry inh -18.4%.
Screening CC(C)N(CCCNC(=O)Cn1c(=O)c2cccn2c2ccc(F)cc21)Cc1ccccc1 returned VACV Venus inh -6.9% and VACV mCherry inh inactive.
For O=C(CCNS(=O)(=O)c1ccc2[nH]c(=O)oc2c1)Nc1ccccc1 the results were VACV Venus inh -25.8% and VACV mCherry inh -16.6%.
For Cc1cc(Cl)c(S(=O)(=O)Nc2ccccn2)cc1OCC(N)=O the results were VACV Venus inh 3.7% and VACV mCherry inh 6.6%.
Cc1ccc(NC2CCCN(C(=O)c3cc(C(C)C)nn3C)C2)cc1C (configuration not stated) was read as VACV Venus inh -15.0% and VACV mCherry inh inconclusive.
Screening COC(=O)c1ccc(OS(=O)(=O)c2ccc(NC(C)=O)cc2)cc1 returned VACV Venus inh -11.2% and VACV mCherry inh inactive.
`CN(C)S(=O)(=O)c1ccc2c(c1)nc(CCC(=O)NCC(=O)Nc1ccc(F)c(F)c1F)n2C` gave VACV Venus inh 0.2% and VACV mCherry inh inactive.
For CCN(c1ccc(NC(=O)COC(=O)CCC(=O)c2ccc(F)cc2)cc1)C(C)C the results were VACV Venus inh -13.6% and VACV mCherry inh -17.6%.
`CC(C)CCNc1c(-c2cccs2)nc2ccccn12` gave VACV Venus inh -10.8% and VACV mCherry inh inconclusive.
`Cc1ccccc1NC(=O)NNC(=O)OC(C)(C)C` gave VACV Venus inh -0.7% and VACV mCherry inh inactive.
`CCCCN1C(=O)Nc2ccccc2S1=O` (configuration not stated) gave VACV Venus inh 0.4% and VACV mCherry inh inactive.
